From PubChem
T cruzi repl: T. cruzi replication inhibition; T. cruzi beta-gal in NIH3T3, luminescence, 90 h; inhibition, % (test concentration not listed); 300,000 tested, 1.4% active;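 active means mean inhibition across valid replicates above about 55%, limit read from the data; inconclusive means mean below that limit but half or more replicates reach it; inactive means mean below it, under half of replicates reach it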;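 further: signal also drops with host cell toxicity which is not excluded here; 0% = plate median of DMSO wells and 100% = zero luminescence signal; higher percent means less beta-gal luminescence so fewer parasites; stock transfer was 50 nL into about 50 µL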
Calb FLC: C. albicans growth modulation with fluconazole. C. albicans CaCi-2 (fluconazole-resistant clinical isolate) + fluconazole, Alamar Blue growth, 48 h. growth inhibition, % (test concentration not listed). 300,000 tested, 0.57% active;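 active means most replicates above 75%; inconclusive means exactly half above 75%; inactive means most below 75%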;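 further: all wells also contain fluconazole at 8 µg/ml as a sub-toxic cotreatment; 0% = median of DMSO wells and 100% = median of geldanamycin control wells; wells of about 8 µL received 7.5 nL stock; the first replicate is given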
Vif TR-FRET: inhibitors of Vif binding to APOBEC3G peptide, primary screen, biochemical, TR-FRET, GST-Vif 1-94, biotin-A3G peptide, dose response retest (AID 1117319). TR-FRET GST-Vif / biotin-A3G peptide binding; higher % means a stronger effect; test concentration not given here; strong numbers were not always called active. one-dose inhibition, %; IC50 in µM for titrated hits. 260,000 tested, 0.57% active;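 active means above the screen mean plus three standard deviations and confirmed in dose response; inconclusive means results disagree or hit not tested in dose response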;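 further: Vif residues 1-94 fused to GST binding biotinylated APOBEC3G peptide 110-148; 0% = full assay without inhibitor and 100% = GST in place of GST-Vif; retest series ran down from 100 µM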
rRNA inh HTS: inhibits bacterial ribosomal RNA function over humanized ribosomes. GFP signal change (wild-type ribosome), % (concentration not given with the values). AID 720706. 350,000 tested, 1.6% active. E. coli WT GFP vs humanized-ribosome RFP mutants, fluorescence, 24 h; hits give low values; DMSO median 0, no signal -100;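 active means significant combined selectivity score with lowered wild-type GFP, culture density cut under 30%, mutant RFP and density less affected; inactive means any of these conditions unmet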; further: one replicate is shown; some compounds called inactive have numbers as strong as hits
Beta apoptosis: beta cell apoptosis inhibition | INS-1E cytokine-induced death, ATP luminescence, 48 h; percent of positive-control rescue, neutral wells zero | protection from apoptosis, % (test concentration not listed) | 300,000 tested, 0.8% active | AID 435005;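 active means all replicates at 75% or more, or half of them and the mean; inconclusive means half reach 75% but not the mean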;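 further: 0% = cytokine-treated negative control wells and 100% = positive control rescue; higher means more ATP so stronger rescue from cytokine killing; wells of about 40 µL received 100 nL stock; the first replicate is given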
A1 inh: inhibitors of the anti-apoptotic protein A1, read as caspase activation. MEF A1-2A-BIM cells, Caspase-Glo 3/7 luminescence, 3 h; percent of clofoctol response, vehicle zero. caspase activation, % (concentration not given with the values). 330,000 tested, 0.066% active;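 active means over half of replicate activation scores above 10%, or exactly half above 10 with the replicate mean above 10; inconclusive means replicate mean below 10 yet half the replicates above 10; inactive means over half of replicates below 10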;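 further: wells of about 30 µL received 50 nL stock; many hits fall short of the cut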
RanGTP-Imp inh: inhibitors of RanGTP-importin-beta interaction, primary screen, biochemical, FRET, CFP-Ran, YFP-importin-beta, homogeneous. cell-free CFP-Ran/YFP-importin-beta FRET ratio. 300,000 tested, 1.1% active. AID 2216. inhibition, % (no concentration beside the values);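 active means most replicates above 15%; inconclusive means exactly half above 15%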;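 further: 0% = DMSO wells and 100% = Ran loaded with GDP instead of GTP; wells of about 40 µL received 100 nL stock; the first replicate is given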
MLL AF4-AF9 inh: MLL-AF4/AF9 protein interaction inhibition; AlphaScreen, biotin-AF4 peptide binding to FLAG-AF9; inhibition, % at 10 µM; P42568; 350,000 tested, 0.47% active;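 active means every replicate reaching a set inhibition limit, whatever the replicate mean, cut at about 25% in these data; inconclusive means mean inhibition reaches that limit but some replicates miss it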;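 further: 0% = plate neutral control median and 100% = total signal loss; the record names both 10 and 1 µM as test concentration; the first replicate is given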
Target sequence (P42568 whole entry, looked up): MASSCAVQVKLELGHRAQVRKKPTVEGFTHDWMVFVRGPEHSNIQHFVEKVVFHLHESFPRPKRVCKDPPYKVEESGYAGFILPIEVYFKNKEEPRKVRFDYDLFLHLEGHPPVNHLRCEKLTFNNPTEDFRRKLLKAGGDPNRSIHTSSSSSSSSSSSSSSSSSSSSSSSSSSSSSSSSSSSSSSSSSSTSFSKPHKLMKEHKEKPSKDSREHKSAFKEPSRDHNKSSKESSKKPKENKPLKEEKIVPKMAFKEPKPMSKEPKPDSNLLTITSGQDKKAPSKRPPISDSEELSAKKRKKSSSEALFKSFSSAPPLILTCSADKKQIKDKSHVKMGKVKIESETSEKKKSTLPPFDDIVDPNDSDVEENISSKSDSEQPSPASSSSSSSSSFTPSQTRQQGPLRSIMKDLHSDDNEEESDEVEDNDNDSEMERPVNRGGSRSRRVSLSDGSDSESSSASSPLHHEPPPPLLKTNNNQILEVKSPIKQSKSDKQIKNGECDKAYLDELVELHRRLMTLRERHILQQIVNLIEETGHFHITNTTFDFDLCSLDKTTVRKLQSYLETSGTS
rRNA inh HTS OD600: also measured in rRNA inh HTS; calls as there; OD600 change, %; measured here: OD600 growth;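 optical density of the mix in the first replicate; 0 = DMSO median and -100 = no signal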
rRNA inh HTS RFP: second read-out of rRNA inh HTS, no call of its own (marks repeat the call); RFP signal change, %; measured here: RFP humanized mutant strains;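 first replicate; 0 = DMSO median and -100 = no signal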
An asterisk follows results filed as active; ? = inconclusive; . = no result given; & = joins results of further samples. A portion of the library; rates above refer to the full screens.

Results follow in this order: T cruzi repl, Calb FLC, Vif TR-FRET, rRNA inh HTS, rRNA inh HTS OD600, rRNA inh HTS RFP, Beta apoptosis, A1 inh, RanGTP-Imp inh, MLL AF4-AF9 inh
CCOc1ccc(CC2c3cc(OCC)c(OCC)cc3CCN2C(=O)CN2CCN(C)CC2)cc1OCC (centres undefined)
 : 3, 1, 15%, 2, 2, 0.3, 2, 0.1, -0.8, -3.0
CCCC(=O)Nc1ccc(Cl)c(NC(=O)c2cccc(OC)c2)c1
 : 2, -28, 10%, ., ., ., -5, 0.1, ?, .
O=C(N/N=C/c1ccc2c(c1)OCO2)c1cc(-c2ccc(F)cc2)nc2ccccc12
 : -13, -5, 2%, 20, 9, 5.9, 1, -0.2, 2.6, 3.9
CCN(CC)S(=O)(=O)c1cccc(C(=O)N/N=C2\CCCC(=O)C2)c1
 : 10, 5, 4%, 12, 4, 6.4, -5, 0.0, -40, 1.7
O=C(O)Cn1ncc2ccccc2c1=O
 : 7, -2, ., 18, 15, -1.1, -1, -0.4, -4.4, -1.5
CCC(CC)NC(=O)Nc1ccccc1C(F)(F)F
 : -9, -6, 1%, 5, 4, -4.9, 1, 1.0, -1.3, -0.1
CCCc1cc(C(=O)Nc2cc(C)ccc2O)no1
 : -26, -20, ., 4, 13, 4.0, 8, -6.4, -2.3, 0.9
O=C(O)c1cccc(-c2ccc(/C=N/n3cnnc3)o2)c1
 : -1, -8, ., 1, 5, 0.4, -6, -0.8, 1.8, 0.7
Cc1ccccc1-c1nnc(SCC(=O)NC2CCCC2)n1C
 : 2, -1, 1%, 9, 6, 2.8, 4, 1.0, 2.8, ?
CCn1c(=N)c(S(=O)(=O)c2ccc(F)cc2)cc2c(=O)n3ccccc3nc21
 : 11, -22, 3%, ., ., ., -2, -0.2, 152*, .
Cc1ccc(C(C)C)cc1C(=O)CC1(O)C(=O)N(C)c2ccccc21 (centres undefined)
 : -3, 0, 5%, ., ., ., -3, -0.1, 1.1, .
COc1cc(OC)c2ccc(=O)oc2c1C(CCN1CCN(c2ccccc2)CC1)c1ccc2c(c1)OCO2 (centres undefined)
 : 24, -9, -4%, 0, 0, 6.9, 4, 0.1, -0.2, 10
COc1ccc(N(CN2C(=O)C3CC=CCC3C2=O)C(=O)c2ccco2)cc1 (centres undefined)
 : 2, -2, 18%, ., ., ., -7, -0.1, 2.3, .
O=C(CN1CCN(Cc2ccccc2)C1=O)NCCCN1CCOCC1
 : -5, 6, 3%, 11, 15, 0.7, ., -0.5, 3.1, -1.6
CCOc1cc(N2CCCC2)ccc1[N+](=O)[O-]
 : 4, 3, 7%, ., ., ., -5, 0.6, -0.3, .
CCc1ccc(C(=O)COC(=O)CNC(=O)c2ccc(N3C(=O)c4ccccc4C3=O)cc2)cc1
 : -24, 2, 0%, ., ., ., -9, -0.5, -0.3, .
Cc1ccc(NC(=O)Cn2cc(C(F)(F)F)cc(Cl)c2=O)cc1S(=O)(=O)N1CCCCC1
 : 7, 1, 3%, -5, 5, 1.6, 6, 0.3, 0.1, 1.1
Cc1cccc(N(CC(=O)NCc2ccc3c(c2)OCO3)C(=O)CCC(=O)Nc2ccccn2)c1
 : 7, -35, 0%&0%, ., ., ., -6, -0.3, -1.0, .
COc1ccc(C2NC(=O)NC(C)=C2C(=O)Nc2cccc(C)c2C)cc1 (centres undefined)
 : -7, -2, 1%, 5, 5, 2.0, 0, -0.1, -3.3, -0.7
COc1ccc(C2c3ccc(O)cc3Oc3ncn(CCN4CCOCC4)c(=N)c32)cc1 (centres undefined)
 : 5, 0, 5%, -9, -3, 2.0, -1, 2.0, 1.7, -42
Cc1cccc(CCNS(=O)(=O)c2ccc3c(c2)NC(=O)CS3)c1
 : -3, 14, -2%, -35*, -26*, 3.0*, -2, -1.5, -0.9, -1.7
Cc1ccc(N=Nc2ccc3ccccc3c2O)cc1
 : -10, 2, ., 10, 11, 2.7, 16, -10, 1.9, 11
CCc1ccccc1-n1nnnc1SCC(=O)Nc1cc(C)on1
 : 10, 10, ., -3, -3, 0.2, -4, 0.0, -0.5, -2.6
Clc1cccc(Cl)c1COc1ccncc1
 : -8, 4, 33%, ., ., ., -2, 0.4, -1.0, .
Cc1cccc(Nc2nnc(-c3ccc(C(=O)N4C[C@H]5C[C@H](C4)c4cccc(=O)n4C5)cc3)c3ccccc23)c1
 : 37, 3, -7%&-3%, ., ., ., 15, -0.1, 1.4, .
COc1ccc(N(C(=O)c2snc(C(N)=O)c2N)C(C(=O)NC2CCCCC2)c2ccc(F)cc2)c(OC)c1 (centres undefined)
 : 7, 3, ., 6, 3, -1.4, 44, 0.4, ?, -13
COc1ccc(CNC(=O)c2ccc(S(=O)(=O)N3CCCC3)cc2)cc1OC
 : -3, -1, -2%&2%, ., ., ., -4, 0.6, 0.5, .
COCCN(CCOC)C(=O)COC(=O)c1cc([N+](=O)[O-])ccc1Cl
 : -1, 1, -7%, 5, -3, 8.5, -8, 1.2, -1.7, -0.4
CC1CCN(c2oc(Cc3cccc4ccccc34)nc2C#N)CC1
 : 23, 1, 1%, ., ., ., 3, 0.0, 3.8, .
C[C@@H]1CN([C@@H](C)CO)C(=O)c2cc(N(C)C)ccc2O[C@@H]1CN(C)Cc1ccncc1
 : ., ., ., -1&-4, 8&-4, 0.5&6.2, 4, ?, ., -3.1&-8.5
COc1ccccc1Cn1nnc2c(=O)[nH]c(C3CCN(C(=O)c4ccc(F)cc4)CC3)nc21
 : -10, 0, 3%&3%, ., ., ., -3, 0.2, 1.9, .
Cc1ccc(CNC(=O)CCC2CCCN(Cc3cccc4c3OCO4)C2)o1 (centres undefined)
 : 52, -3, 17%, 8, 3, -3.8, -3, 0.6, 1.9, 14
CC1CC(C)CN(C(=O)COC(=O)CCc2nc3ccccc3c(=O)[nH]2)C1 (centres undefined)
 : -2, -9, 5%, ., ., ., -12, 0.1, -0.6, .
CC(Sc1n[nH]c(-c2cccs2)n1)C(=O)Nc1ccccc1F (centres undefined)
 : ., ., -11%, 3, -23, 0.3, -9, 0.7, ., -1.9
Cc1cc(OCC(=O)NC2CC2)c2c(C)c(C)c(=O)oc2c1
 : 2, 0, 11%, -3, -13, -1.9, -1, 1.9, -0.6, -0.7
N#C/C(=C(/O)COc1ccccc1)c1nc2ccccc2s1
 : -43, 7, -7%, -21, -24, 1.5, 16, -0.8, -5.2, -2.1
NNC(=O)c1ccc(S(=O)(=O)N2CCc3ccccc32)cc1
 : -2, -4, ., 5, 17, 2.7, -2, -0.2, 3.9, -0.3
O=C(CCC(=O)N1CCN(c2ccccc2F)CC1)N1CCN(c2ccc(F)cc2)CC1
 : 2, 17, 3%, -17, -19, 0.5, 1, 0.0, -0.7, 1.0
CCOC(=O)c1c(-c2cccc([N+](=O)[O-])c2)csc1N
 : -3, -22, -4%, -5, -1, -2.1, -9, 0.2, ?, 1.7
CCCS(=O)(=O)NCCc1cc2c(C)ccc(C)c2[nH]c1=O
 : -8, 2, 16%, 1, 2, -3.0, -7, 1.0, -3.8, -6.2
COc1cccc(-c2nc(C(=O)NCC3CCCO3)cc3c2[nH]c2ccccc23)c1 (centres undefined)
 : 38, 20, ., ., ., ., 33, 0.5, ?, -2.4
N#Cc1c(-c2ccc(F)cc2)ccnc1N1CCOCC1
 : -6, 4, ., -21, -23, -9.6, 3, 1.1, 0.2, -2.5
O=C(NCC1CCCN(Cc2cccc(OCCO)c2)C1)c1ccc(F)cc1 (centres undefined)
 : 19, -1, -2%, 9, 7, 0.5, -4, -0.2, 0.4, .
C#CCSc1cc(C(F)(F)F)nc(-c2ccccn2)n1
 : 8, -4, 12%, -11, -7, -1.1, 0, 0.9, -0.5, -0.9
Cc1ccc(SCC(=O)Nc2c(Br)cnn2C)cc1
 : -4, -6, 2%, 9, 2, 4.5, -1, -0.8, 0.9, -3.8
CCOc1ccc2nc(NC(=O)CSc3nc4c(c(=O)n(C)c(=O)n4C)n3C(C)C)sc2c1
 : 14, 36, 19%, ., ., ., -21, 0.0, -2.4, .
NS(=O)(=O)c1cc(C2(O)NC(=O)c3ccccc32)ccc1Cl (centres undefined)
 : 0, ., -8%, -6, -2, -2.9, ., -0.7, -3.2, -4.2
COc1ccccc1NC(=S)N(Cc1ccccc1)Cc1ccccn1
 : -15, 10, ., ., ., ., -4, 0.6, -15, .
Cc1c(NC(=O)COc2cccc(F)c2)c(=O)n(-c2ccccc2)n1C
 : ., ., -5%, 10, 19, 1.1, -4, -0.4, ., -19
Cn1cc(Cl)c(C(=O)N/N=C/c2ccc(OS(=O)(=O)c3ccccc3)cc2)n1
 : 7, -12, -5%, ., ., ., -1, -0.5, -0.1, .

Next compounds:
Results follow in this order: T cruzi repl, Calb FLC, Vif TR-FRET, rRNA inh HTS, rRNA inh HTS OD600, rRNA inh HTS RFP, Beta apoptosis, A1 inh, RanGTP-Imp inh, MLL AF4-AF9 inh
CC(O)[C@@H](NC(=O)C1CCC(CNC(=O)[C@H](Cc2ccccc2)NC(=O)OC(C)(C)C)CC1)C(=O)O (some centres undefined)
 : -2, -10, 0%, 11, 7, -2.3, ., -0.2, 1.3, -1.1
COc1cc(OC)cc(-c2c(-c3cccs3)c3cc(-c4cccc5[nH]ccc45)ccc3n2C)c1
 : ., ., ., 12, 12, -3.8, -1, -0.1, ., -3.5
CC1CCN(S(=O)(=O)c2ccc(-c3nnc(SCc4cccnc4)o3)cc2)CC1
 : 5, -8, 11%, ., ., ., 5, 0.0, -0.9, .
CN(Cc1cccs1)C(=O)C1CCN(S(=O)(=O)c2ccccc2)CC1
 : ., ., -8%, ., ., ., -5, -0.2, ., -0.2
CC(=O)Nc1ccc(S(=O)(=O)NCc2cn3c(C)csc3n2)cc1
 : -18, -1, ?, ., ., ., -3, 0.1, ?, .
Cc1ccc(OCC(=O)Nc2cccc(S(=O)(=O)N3CCOCC3)c2)c([N+](=O)[O-])n1
 : 29, -22, 18%, 11, 5, -1.0, -7, 0.3, ?, -1.4
COc1ccc(S(=O)(=O)N2CCCCCC2)cc1C(=O)OCC(=O)NC1CCS(=O)(=O)C1 (centres undefined)
 : ., ., ., 1, 5, -0.4, -1, -0.3, ., 2.1
c1ccc(-c2nnc(SCc3nnc(-c4cccs4)o3)o2)cc1
 : 10, -14, 3%, ., ., ., -9, -0.5, -1.4, .
